Screening results as filed in PubChem.
HTT promoter inh: inhibitors of huntingtin promoter activity | Potency, µM (series often up to 57.5 µM), for inactives: top-dose activity change, negative = inhibition, usual class: inhibitors | HEK293 HTT promoter firefly luciferase reporter (activity 0% = vehicle and -100% = no light), 24 h | AID 1508623 | hit rate 0.93% among 48,000; active = well fitted inhibition curve with a large enough effect; inconclusive = small, poorly fitted or top-dose-only effect; inactive = no such curve, though single readings can be large or run the other way; also: nearly all actives have a fitted effect of over 50% in size
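HEK293 Fluc reporter, 2,500 cells/well, 24 h pre-culture; cpds up to 57.5 uM final, 24 h 37 degrees C; Dual-Glo, 10 min RT; normalized vehicle = 0%, zero RLU = -100%.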
PMP22 txn prim: PMP22 gene transcription modulation; Potency, µM (titrated, usually from 57.5 µM), inactives show at the highest dose activity change, negative = inhibition, most hits filed as inhibitors; S16 Pmp22-F2sN Schwann cells (luciferase reporters placed in the Pmp22 gene), FLuc/NLuc coincidence luminescence, 24 h; AID 1508649; hit rate 2% among 43,000; active = clear falling dose curves in both reporters; inconclusive = both reporters move, but less clearly or upward; inactive = either reporter flat; the % is the NLuc reporter signal; also: % is scaled to controls: 0 for no effect and ±100 for the full control effect; some results filed as inactive show a strong effect at the top dose
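Luminescent read-out of sequential FLuc and NLuc signals from a reporter embedded in the Pmp22 3' UTR of S16 Schwann cells, taken after 24 h compound exposure at 37C; compounds reducing both signals score as inhibitors of expression.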
* = called active by the depositor; ? = inconclusive; nt = no result given; [ ] = remark or other dose. Potency is read from the fitted curve at half-maximal effect. Hits appear at their usual frequency (roughly 2.6% active in at least one column).

Start of the listing, in advance (17 entries):
SMILES	HTT promoter inh	PMP22 txn prim
CCc1ccccc1NC(=O)c1cc2c(Cl)nc3ccccc3c2s1	6%	10µM*
COCCCNC(=O)C1CCN(c2ncnc3c2nc2n3CCCCC2)CC1	-7%	0%
CCN(CC)C(=O)c1sc2c(c1C)c(=O)n(-c1ccccc1)c(=O)n2CC(=O)N(CC)c1cccc(C)c1	0%	0%
Cc1cc(NC(=O)COCc2cc(-c3ccc(F)cc3)on2)ccc1Br	-19%	-15%
Cc1cccc(-c2nc(CCNC(=O)Cc3ccc(F)cc3)cs2)c1	-21%	18%
CCCCOc1ccccc1C1CC(=O)Nc2cc(C)c(C)cc21 (centres undefined)	?	?
Cc1ccc(N2CCN(S(=O)(=O)c3cc(C(=O)Nc4cc(Cl)cc(Cl)c4)ccc3F)CC2C)cc1 (centres undefined)	?	?
COc1ccc(C2=NN(CC(=O)NCCCN(C)c3ccccc3)C(=O)CC2)cc1	-10%	-32%
COC(=O)c1cc(NC(=O)Nc2ccc3snnc3c2)cc(C(=O)OC)c1	-12%	-9%
CCOCCCNc1nc2c(S(=O)(=O)c3ccc(CC)cc3)nnn2c2ccc(Cl)cc12	6%	-9%
COc1ccc(OC)c(CNC(=O)c2cc3c(=O)oc4ccc(C)cc4c3s2)c1	-3%	1%
COc1ccccc1CCNC(=O)C(=O)NCC(c1ccc2c(c1)OCO2)N1CCOCC1 (centres undefined)	-28%	-31%
COc1ccc(-c2[nH]c(-c3ccc(OC)c(OC)c3)nc2SCC(=O)Nc2ccccc2)cc1	-20%	-29%
CCCCNC(=O)NS(=O)(=O)c1ccc(C)cc1	6%	nt
CCOc1ccc(NC(=O)CSc2nccn2-c2cccc(C)c2C)cc1	?	?
Cc1cc2nc(-c3ccc(Br)cc3)cc(C(F)(F)F)n2n1	-16%	10%
CCCNC(=O)Cn1c(=O)c2cccn2c2cccnc21	?	-2%

The list itself, repeating the preview:
SMILES	HTT promoter inh	PMP22 txn prim
CCc1ccccc1NC(=O)c1cc2c(Cl)nc3ccccc3c2s1	6%	10µM*
COCCCNC(=O)C1CCN(c2ncnc3c2nc2n3CCCCC2)CC1	-7%	0%
CCN(CC)C(=O)c1sc2c(c1C)c(=O)n(-c1ccccc1)c(=O)n2CC(=O)N(CC)c1cccc(C)c1	0%	0%
Cc1cc(NC(=O)COCc2cc(-c3ccc(F)cc3)on2)ccc1Br	-19%	-15%
Cc1cccc(-c2nc(CCNC(=O)Cc3ccc(F)cc3)cs2)c1	-21%	18%
CCCCOc1ccccc1C1CC(=O)Nc2cc(C)c(C)cc21 (centres undefined)	?	?
Cc1ccc(N2CCN(S(=O)(=O)c3cc(C(=O)Nc4cc(Cl)cc(Cl)c4)ccc3F)CC2C)cc1 (centres undefined)	?	?
COc1ccc(C2=NN(CC(=O)NCCCN(C)c3ccccc3)C(=O)CC2)cc1	-10%	-32%
COC(=O)c1cc(NC(=O)Nc2ccc3snnc3c2)cc(C(=O)OC)c1	-12%	-9%
CCOCCCNc1nc2c(S(=O)(=O)c3ccc(CC)cc3)nnn2c2ccc(Cl)cc12	6%	-9%
COc1ccc(OC)c(CNC(=O)c2cc3c(=O)oc4ccc(C)cc4c3s2)c1	-3%	1%
COc1ccccc1CCNC(=O)C(=O)NCC(c1ccc2c(c1)OCO2)N1CCOCC1 (centres undefined)	-28%	-31%
COc1ccc(-c2[nH]c(-c3ccc(OC)c(OC)c3)nc2SCC(=O)Nc2ccccc2)cc1	-20%	-29%
CCCCNC(=O)NS(=O)(=O)c1ccc(C)cc1	6%	nt
CCOc1ccc(NC(=O)CSc2nccn2-c2cccc(C)c2C)cc1	?	?
Cc1cc2nc(-c3ccc(Br)cc3)cc(C(F)(F)F)n2n1	-16%	10%
CCCNC(=O)Cn1c(=O)c2cccn2c2cccnc21	?	-2%
Cc1nn(C(C)C(=O)Nc2ccccc2C(F)(F)F)c(=O)c2c1sc1ccccc12 (centres undefined)	-2%	-12%
CCOc1ccccc1NC(=O)Cn1cnc2onc(-c3ccc(F)cc3)c2c1=O	-11%	-17%
CCc1ccc(CNC(=O)c2ccc(NC(=O)N3CCCCc4ccccc43)cc2)cc1	?	?
COc1ccc(-n2nc3c(N4CCC(C(=O)N5CCC(C)CC5)CC4)nnc(C)c3c2C)cc1	-11%	?
COc1ccc(CCNS(=O)(=O)c2ccc3c(c2)CC(C)N3C(=O)C2CCC2)cc1OC (centres undefined)	?	?
Cc1cccc(Cn2cc(/C=C(/C#N)C(=O)Nc3cccc(Cl)c3)c3ccccc32)c1	?	-24%
COc1cc(Cl)c(S(=O)(=O)N2CCN(c3c(C)cccc3C)CC2)cc1Cl	-7%	44%
Cc1ccc(NC(=O)CSc2ncc3c(n2)-c2ccccc2N(C)S3(=O)=O)c(Cl)c1	-29%	6.4µM*
COc1ccc(-c2noc(CNC(=O)c3ccccc3Br)n2)cc1	-23%	-23%
O=C1CC(c2ccccc2)Cc2[nH]c(=O)c(-c3nc(-c4ccc(Cl)c(Cl)c4)cs3)cc21 (centres undefined)	-20%	-7%
CNC(=O)C1CCC(Cn2c(=O)c3sccc3n(Cc3ccccc3)c2=O)CC1 (centres undefined)	-1%	15%
COc1cc(NC(=O)c2cc3nc(-c4ccccc4)cc(-c4ccccc4)n3n2)c(OC)cc1Cl	5%	-11%
Cc1cc(C)cc(NC(=O)Cn2c(-c3cncs3)nc3ccccc32)c1	-12%	30%
Cc1cccc(NC(=O)CN2C(=O)C3(SCC(=O)N3c3ccccc3)c3ccccc32)c1 (centres undefined)	?	?
O=C(Cn1cc(SCc2cccc(Cl)c2)c2ccccc21)N1CCCCC1	3%	?
O=[N+]([O-])c1ccc(S(=O)(=O)N2CCn3cccc3C2c2ccc(Br)cc2)cc1 (centres undefined)	-1%	-7%
CCc1c(C)sc2c1CCN(C(=O)Nc1ccccc1C(F)(F)F)C2c1ccccc1 (centres undefined)	?	?
Cc1cccc(Cn2c(=O)n(Cc3ccccc3)c(=O)c3sc4ccccc4c32)c1	-13%	?
COc1ccccc1CNC(=O)c1ccc(CN2CC(=O)N3CCCCC3C2=O)cc1 (centres undefined)	-17%	?
CCN(c1ccccc1)c1ncnc2c1cnn2-c1ccc(C)cc1C	16%	?
Cc1nn2c(=O)cc(COc3ccc(/C=C(\C#N)C(=O)Nc4ccccc4)cc3Cl)nc2s1	-18%	-17%
Cc1ccc(C)c(N2CCN(S(=O)(=O)c3cc(C(=O)Nc4ccc(Oc5ccccc5)cc4)ccc3F)CC2)c1	2µM*	-36%
COc1ccccc1CNS(=O)(=O)c1ccc2c(c1)NC(=O)CC(=O)N2	-7%	28%
COc1ccccc1C(=O)OCc1cc(=O)n2nc(C(C)C)sc2n1	-1%	?
Cc1ccc2c(c1)C(c1ccc(F)cc1)N(C(=O)c1ccc(OC(C)C)cc1)CC(=O)N2 (centres undefined)	?	-7%
COc1cc(NC(=O)c2cc(C3CC3)nc3c2c(C)nn3-c2ccccc2)cc(OC)c1	?	-1%
CCOC(=O)c1c(S(=O)(=O)N2CCC(C(=O)Nc3ccc(C)cc3C)CC2)c(C)n(C)c1C	-9%	33%
COc1cc(CN(C(=O)COc2ccccc2)c2ccccn2)cc(OC)c1OC	-18%	?
O=C(Nc1nnc(S(=O)(=O)N2CCc3ccccc32)s1)c1ccccc1	?	13%
CCOc1ccc(-c2cc(NC(=O)c3ccc(C)cc3)c(C(=O)OC)s2)cc1	13%	-12%
COc1ccc2[nH]cc(CCNC(=O)Nc3cc(C)cc(C)c3)c2c1	3%	3%
COc1ccc(OC)c2sc(N(Cc3cccnc3)C(C)=O)nc12	-6%	-5%
CCn1nnc2cc(C(=O)Nc3ccc(Br)cc3F)ccc21	21%	-13%
O=C(Nc1ccc(S(=O)(=O)N2CCCCC2c2cccnc2)cc1)c1ccc(F)cc1 (centres undefined)	?	?
O=c1cc(N2CCOCC2)oc2c(-c3cccc4c3sc3ccccc34)cccc12	-11%	nt
Cc1ccc(NCc2cccn2-c2nnc(N3CCC(C(=O)NCc4ccc(F)cc4)CC3)s2)cc1	?	?
CCc1cccc(C)c1NS(=O)(=O)c1ccc2c(c1)NC(=O)C(C)C(=O)N2 (centres undefined)	-15%	-35%
CC(=O)c1ccc(NS(=O)(=O)c2ccc(-n3cccn3)cc2)cc1	?	2%
COc1cccc(-c2nc3c(c(SCc4ccccc4Cl)n2)Cc2c(CO)cnc(C)c2O3)c1	-12%	7%
O=C(CCSCc1cnn(-c2ccccc2)c1-n1cccc1)NCc1ccccc1F	?	-34%
CCOC(=O)C1CCN(c2ncnc3c2nnn3C)CC1	-8%	-2%
CCOCCCn1c(=N)c(C(=O)NC2CCCC2)cc2c(=O)n3cccc(C)c3nc21	-5%	?
COc1ccc(CNC(=O)C(=O)NCC(c2cccs2)S(=O)(=O)c2ccc(F)cc2)cc1 (centres undefined)	?	-22%
(further entries)
SMILES	HTT promoter inh	PMP22 txn prim
CCOc1cc(CC(=O)N[C@@H](CC(C)C)c2ccccc2N2CCCCC2)ccc1C(=O)O	-4%	nt
Cc1ccc(N(Cc2cccs2)C(=O)c2ccc(Br)o2)cc1	-17%	-34%
COc1ccccc1CNC(=O)C1CCC(CNS(=O)(=O)c2ccc3c(c2)CCCC(=O)N3)CC1 (centres undefined)	-16%	-21%
Cc1ccc(CNC(=O)c2ccc3c(O)c(S(=O)(=O)c4ccccc4)c(=O)[nH]c3c2)cc1	-1%	13%
CC(NC(=O)C1(c2cccs2)CCOCC1)c1ccccc1 (centres undefined)	-8%	12%
CCOc1ccc(N(CC)S(=O)(=O)N2CCCC(C(=O)NCc3ccc(SC)cc3)C2)cc1 (centres undefined)	?	?
COc1cc(CN(C(=O)COc2ccc(Cl)cc2)c2ccccn2)cc(OC)c1OC	?	?
COc1ccc(-c2ccc(CCC(=O)O)n2CC(=O)Nc2cccc(C(F)(F)F)c2)cc1	-26%	-24%
CCNc1ccc(-c2nc(-c3ccncc3)no2)cc1[N+](=O)[O-]	31%[activator]	-4%
Cc1[nH]c(=O)c(C#N)cc1-c1ccncc1	?	nt
COc1cccc2c1Oc1ncccc1N(C(=O)Nc1ccc(F)c(Cl)c1)C2	?	45%
CCCCC(Sc1nc2cc3c(cc2c(=O)n1CCCC(=O)NCc1ccc2c(c1)OCO2)OCO3)C(=O)OCC (centres undefined)	-9%	-4%
CCOC(=O)c1c(NC(=O)c2nc(S(C)(=O)=O)ncc2Cl)sc(C(C)=O)c1C	4%	4.3µM*
COc1ccc(CCNC(=O)CCCn2c(=O)c3cccn3c3ccccc32)cc1OC	5%	-16%
CCCCS(=O)(=O)c1oc(-c2cccs2)nc1S(=O)(=O)c1ccccc1	?	1.8µM*
Cc1c(CNC2CCCCC2)c(C(=O)O)c(C)n1Cc1cccc(Cl)c1	-11%	5%
Cc1ccc2nc(N3CCN(c4cccc(C)c4C)CC3)c3nncn3c2c1	-10%	-11%
CCCOc1ccc(C(=O)Nc2cccc(NC(=O)c3ccc(Cl)cc3Cl)c2)cc1	-10%	?
CCOC(=O)c1c(C)n(-c2ccccc2)c2ccc(OC(=O)c3cccc(OC)c3OC)cc12	-19%	-1%
Cc1ccc(C)c(OCC(=O)Nc2sc3c(c2C#N)CCCC3)c1C	-21%	-21%
Cc1nn(-c2ccccc2)c2sc(C(=O)Nc3ccc(Cl)cc3Cl)cc12	8%	4%
O=C1CCSc2ccc(S(=O)(=O)Nc3cccc(C(F)(F)F)c3)cc2N1	-39%	?
Cc1cc(C)cc(-n2ccnc2SCC(=O)Nc2ccc3c(c2)OCO3)c1	?	-37%
CC(C)CCN(C(=O)Nc1ccccc1)C(C)c1cccs1 (centres undefined)	-36%	27%
CCCCCCOc1ccc(C2C(=O)N(C3CCCCC3)CC(=O)N2CCC)cc1 (centres undefined)	-29%	?
COc1ccccc1C(=O)Nc1cccc(C(=O)OCc2cc(=O)n3nc(C)sc3n2)c1	-6%	0%
COc1ccc(N2CCN(Cc3nnc(-c4cccc(Br)c4)o3)CC2)cc1	-6%	7%
Cc1ccc(OCC(=O)Nc2ccccc2C(=O)OCc2cc(=O)n3ccsc3n2)cc1C	-16%	2%
CCc1ccccc1NC(=O)Cn1c(=O)n(C(C)C)c(=O)c2oc3ccccc3c21	-6%	4%
CN1N=C(C(N)=O)CCC1=O	12%	nt
COc1ccc(-n2c(=O)c3c(c4cc(OC)ccc4n3C)n(Cc3cccc(OC)c3)c2=O)cc1	-7%	-18%
O=c1c2sc3ccccc3c2n(Cc2cccc(Cl)c2)c(=O)n1Cc1ccc(F)cc1	-8%	-30%
Cc1cc(=O)c2cc(C(=O)Nc3ccc(F)cc3)ccc2[nH]1	13%	3%
CCOC(=O)c1[nH]c(C)c(CCC(=O)NCc2ccc(OC)cc2)c1C	-11%	-2%
Cc1cccc(N2CCN(Cc3nnc(-c4cccc(Br)c4)o3)CC2)c1C	-20%	-1%
Cc1ccc(C)c(N2CCN(C(=O)c3cc4c(=O)oc5ccccc5c4s3)CC2)c1	-5%	-28%
CCCCn1c(=O)c2oc3ccccc3c2n(Cc2ccccc2C)c1=O	4%	-8%
COc1ccc(NC(=O)Cn2c(=O)n(CC3CCCO3)c(=O)c3ccccc32)cc1 (centres undefined)	-9%	-3%

One compound at a time (already shown). Order of values: HTT promoter inh, PMP22 txn prim
O=c1c2sc3ccccc3c2n(Cc2cccc(Cl)c2)c(=O)n1Cc1ccc(F)cc1 is entered as -8%, -30%
COc1ccc(-n2c(=O)c3c(c4cc(OC)ccc4n3C)n(Cc3cccc(OC)c3)c2=O)cc1 is entered as -7%, -18%
